Assay outcomes as filed in PubChem BioAssay.
TRPML1 ag = agonists of human TRPML1 channel. Q9GZU1. TRPML1-expressing cells, Ca2+ dye fluorescence, FDSS; host cell line not named in the record; reference of the full effect not given here. activation, % (no concentration beside the values). hit rate 0.12% among 410,000. AID 624414; in the data active = activation above about 50%; inconclusive = about 30% to 50%; inactive = below about 30%; also: 0% is about no effect; the text of the record puts the active cut at 80%
Target sequence (Q9GZU1 whole entry, looked up): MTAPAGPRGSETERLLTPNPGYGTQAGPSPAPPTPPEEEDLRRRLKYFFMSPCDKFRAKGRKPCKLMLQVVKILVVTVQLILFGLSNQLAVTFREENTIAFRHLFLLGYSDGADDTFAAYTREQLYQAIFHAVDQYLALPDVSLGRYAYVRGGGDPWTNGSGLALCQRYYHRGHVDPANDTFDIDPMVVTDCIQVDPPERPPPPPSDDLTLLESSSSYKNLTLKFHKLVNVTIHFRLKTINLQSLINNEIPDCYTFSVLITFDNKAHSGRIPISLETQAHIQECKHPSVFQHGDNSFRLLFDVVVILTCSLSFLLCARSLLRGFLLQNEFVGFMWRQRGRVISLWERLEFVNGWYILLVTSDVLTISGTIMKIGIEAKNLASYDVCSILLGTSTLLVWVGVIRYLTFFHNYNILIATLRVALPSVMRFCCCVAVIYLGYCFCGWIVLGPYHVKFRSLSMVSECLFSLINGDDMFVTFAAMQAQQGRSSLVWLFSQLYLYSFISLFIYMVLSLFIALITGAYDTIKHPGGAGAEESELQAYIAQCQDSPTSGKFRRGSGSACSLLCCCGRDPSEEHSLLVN
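Agonist activity was taken from a 110 s kinetic Ca2+ dye read on the FDSS after pinning compounds onto TRPML1-DL cells. The cells were seeded at 1,500/well with Tet inducer, incubated about 16 h, then dye-loaded at room temperature.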
gsp antag = gsp mutant antagonism | gsp-mutant cells, cAMP HTRF, 30 min; control for the full effect not named in the record | hit rate 0.4% among 340,000 | Potency, µM (series often up to 76.9 µM), for the others: at the top dose activity change, negative = inhibition, hits mostly inhibitors | AID 624288; active = falling curve of any shape with a large fitted effect; inconclusive = falling curve, mostly with a smaller effect; inactive = flat or rising curve; cell line not stated here;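 also: intracellular cAMP measured with PDE inhibitor Ro 20-1724 present during compound exposure; potency is read from the fitted curve at half-maximal effect; % is scaled to controls: 0 for no effect and ±100 for the full control effect; nearly all actives have a fitted effect of over 65% in size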
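Measurement of cellular cAMP by homogeneous time-resolved fluorescence following a 30 min compound exposure at 37C. The PDE inhibitor […] was present throughout; the assay buffer was DPBS with 0.05% BSA and 0.005% Tween 20.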
ClpP mod = qHTS Assay for Activators of ClpP. AID 651965, 2013. purified B. subtilis ClpP, FRET peptide cleavage, 20 min. ATP-dependent Clp protease proteolytic subunit (Bacillus subtilis (strain 168)), P80244. hit rate 1.9% among 340,000. Potency, µM (series often up to 57.5 µM), inactives show top-dose activity change, negative = active; active = well fitted falling curve with a large enough effect; inconclusive = small, poorly fitted or top-dose-only effect; inactive = no such curve, though single readings can be large or run the other way; also: potency is read from the fitted curve at half-maximal effect; the source files actives as falling curves though it sought activators and does not explain the sign; nearly all actives have a fitted effect of over 65% in size; many hits overshoot -100%
Target sequence (P80244 whole entry, looked up): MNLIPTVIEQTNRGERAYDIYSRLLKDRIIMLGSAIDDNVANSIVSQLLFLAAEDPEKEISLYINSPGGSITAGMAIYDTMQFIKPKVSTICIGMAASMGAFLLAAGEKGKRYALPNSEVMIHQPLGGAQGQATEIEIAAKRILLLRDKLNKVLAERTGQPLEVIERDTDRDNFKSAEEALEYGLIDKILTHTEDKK
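Purified B. subtilis ClpP, 10 microg/mL final in Tris/HCl pH8 with KCl, BSA, glycerol and Tween-20, cleaved an Abz/nitrotyrosine-quenched decapeptide. Fluorescence (ex 320, em 430) was read at 0 and 20 min at room temperature. Delta was normalized to 5.8 microM ADEP and DMSO/no-enzyme controls.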
Menin-MLL FL inh = inhibitors of human menin-MLL interaction, wild-type MLL peptide; Fluorescence polarization, fluorescein-MLL peptide displacement from menin; FP activity change, % at 61.4 µM; 290,000 tested, under 10 active; AID 1766; inconclusive = falling polarisation curve, or a change in total fluorescence; inactive = total fluorescence flat and polarisation flat or rising; no compound was filed as active; the % refers to the polarisation; negative = inhibition;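 also: % of control where 0% means no effect; inhibitors lower the polarisation; unlabelled MLL peptide was the positive control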
TRPML1 blocker = blocks the human TRPML1 channel; TRPML1-inducible cells, Ca2+ dye fluorescence, FDSS; stronger effect = lower value; inhibition of EC80 agonist-evoked calcium signal; Q9GZU1; hit rate 0.02% among 390,000; activity change, negative = inhibition, % (no concentration beside the values); in the data active means activity change below about -50%; inconclusive means about -30% to -50%; inactive means above about -30%;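 also: stimulus is agonist 54-4 at its EC80 concentration; % is scaled to controls: 0 for no effect and ±100 for the full control effect; compound concentration not given in the record; the text of the record puts the active cut at -80%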
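Calcium fluorescence in TRPML1-DL cells induced overnight with Tet: a 110 s read after compound pin addition, then a 110 s antagonist read after challenge with 54-4 at 4 uM final (EC80).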
gsp ag = agonists of gsp mutant (McCune-Albright syndrome); AID 624287; hit rate 0.13% among 340,000; Potency, µM (top dose mostly 76.9 µM), inactives show at the highest dose activation (cAMP increase), most hits filed as activators; gsp mutant cells, cAMP HTRF, 30 min; control for the full effect not named in the record; active = well fitted activation curve with a large enough effect; inconclusive = small, poorly fitted or top-dose-only effect, or another doubt; inactive = no such curve, though single readings can be large or run the other way; cell line not stated here;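 also: phosphodiesterase inhibitor Ro 20-1724 added with compounds to block cAMP breakdown; potency is read from the fitted curve at half-maximal effect; nearly all actives have a fitted effect of over 60% in size; about a fifth of the inactives were tested at one dose only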
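Cells stably selected in G418 were plated at 2000/well, grown 16-24 hr, then given compounds in DMSO with the PDE inhibitor […] (300 uM solution added) for 30 min at 37C; cAMP was read by HTRF.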
* marks the source's active call; other numbers are inactive results; ? = inconclusive; . = no result given; & = joins results of further samples; [ ] = remark or other dose.

SMILES	TRPML1 ag	gsp antag	ClpP mod	Menin-MLL FL inh	TRPML1 blocker	gsp ag
COc1ccc(C2=NC(c3ccncc3)=Nc3ccc(OC)cc3N2)cc1	-0.5	.	-2.1%	.	3	.
O=C(CCCn1c(=O)[nH]c2ccsc2c1=O)N1CCN(c2cccc(C(F)(F)F)c2)CC1	-0.5	.	-0.9%	.	13	.
COc1cccc(OCc2nc3ccccc3n2Cc2ccccc2)c1	3.6	.	0.2%	.	35	.
CCCN(CC(=O)Nc1ccccc1OC)C(=O)c1ccccn1	0.8	6%	0.3%	.	2	4%[15.4 µM]
CC(NC(=O)N1CCN(c2ccccc2F)CC1)c1ccc(F)c(F)c1 (stereo not drawn)	-0.4	-5%	.	4.4	18	13%
CCC(C)NC(=O)NC(=O)CSc1nnc(-c2ccccc2F)n1C1CC1 (stereo not drawn)	0.3	-6%	.	-1.6	12	?
CNC(=S)N/N=C/C1=CCC2CC1C2(C)C (stereo not drawn)	0.5	-7%	-27%	1.3	-4	-2%
CC(OC(=O)CCN1C(=O)C2CC=CCC2C1=O)C(=O)Nc1cccc(Cl)c1 (stereo not drawn)	-1.1	-4%	-6.0%	.	-2	22%
CCC(CC)C(=O)Nc1cccc(-c2nc3ccccc3s2)c1	0.8	.	-28%	.	-14	.
COc1cccc(CC(=O)OCC(=O)NC(C)c2ccc(F)cc2)c1 (stereo not drawn)	-0.2	6%	-0.4%	.	4	21%
CCOc1ccc(NC(=O)CN(C)C(=O)c2c(C)noc2C)cc1OCC	-0.2	7%	-1.3%	.	-11	4%
COc1ccc(N2CCN(c3c4c(nc5nncn35)CCC4)CC2)cc1	1.5	.	-1.3%	.	-5	.
C/C(=N\NC(=O)c1nnn(-c2nonc2N)c1CN(C)c1ccccc1)c1ccccn1	-0.6	-9%	0.0%	0.1	0	-57%[inhibitor]
CSc1nnc(NC(=O)C23CC4CC(CC(C4)C2)C3)s1	-0.8	-12%	0.8%	-5.0	1	-1%
CC(C)OCC(O)CS(=O)(=O)Cc1ccccc1 (stereo not drawn)	-0.5	9%	0.3%	1.0	10	-50%[inhibitor]
NC(=O)Nc1cccc2ccccc12	-0.3	24%	-0.3%	2.7	5	4%[15.4 µM]
Cc1ccc(NC(=O)CNC(=O)c2ccco2)nc1	-0.3	2%	-1.4%	.	-10	3%
COC(=O)c1cc(NCc2ccccc2F)ccc1N1CCOCC1	0.2	-3%	-1.3%	5.4	0	-6%
COc1ccccc1NCC(=O)N1CCN(S(=O)(=O)c2ccccc2)CC1	0.1	7%	-2.1%	.	2	8%
O=C(/C=C\NCC(=O)c1ccccc1)c1ccccc1	-0.3	1%	-8.6%	30[activator]	-8	14%
COc1ccc2c(c1)OC[C@H]1[C@H]2N2C(=O)c3ccccc3NC(=O)[C@@]2(C)[C@H]1c1ccccc1	-0.2	-16%	-8.5%	.	-5	.
CC(C(=O)Nc1ccc2c(c1)OCCO2)N1CCN(C(=O)c2ccco2)CC1 (stereo not drawn)	0.3	-2%	-2.7%	0.8	-14	-10%
O=C(CN(Cc1ccccc1)S(=O)(=O)c1ccc2c(c1)OCCO2)Nc1ccc2c(c1)OCCO2	0.4	-6%	1.7%	8.1	-3	0%
O=C(CC(O)(CC(=O)OCc1ccccc1)C(=O)OCc1ccccc1)OCc1ccccc1	0.8	-20%	.	.	-7	-3%
COc1ccc(OC)c(NC(=O)CSc2nc3[nH]c(=O)cc(O)c3s2)c1	0.1	1%	-0.8%	.	-7	18%
CC(=O)c1ccc(S(=O)(=O)N2CCN(CC(=O)NC(=O)NC3CCCCC3)CC2)cc1	0.5	-5%	-2.9%	.	11	0%
O=C(COC(=O)Cc1ccsc1)Nc1cccc(Cl)c1	0.8	-7%	0.0%	.	-11	-15%
CC(C)Cn1c(N)c(C(=O)COC(=O)c2cc(F)cc(F)c2)c(=O)n(C)c1=O	1.4	?	1.7%	-0.7	-7	-12%
Cc1ccc(C(=O)C2=C(O)C(=O)N(Cc3ccco3)C2c2ccc(N(C)C)cc2)o1 (stereo not drawn)	0.8	?	0.2%	.	-5	?
CCCn1c(C(O)c2cc(OC)ccc2OC)nc2ccccc21 (stereo not drawn)	-0.1	-9%	0.6%	-4.5	-5	-19%
OCC[C@H]1C[C@@H](O)[C@H](O)[C@]2(CCc3ccccc3CO2)O1	-0.7	14%	1.1%	.	-8	-7%
Cc1n[nH]c(=O)n1-c1ccc(OCc2ccccc2)cc1	-0.5	9%	.	8.7	0	-21%
CCOC(=O)c1cc2c(=O)n3ccccc3nc2n(Cc2ccco2)c1=NC(=O)c1cccc(C)c1	4.3	.	4.2%	.	-2	.
COc1cccc(NC(=O)CSc2nc(=O)n(Cc3ccncc3)c3c2CCCC3)c1	-0.3	-9%	2.0%	.	-7	6%[15.4 µM]
CCC(C)Cn1c(O)cc2nn(-c3nc4ccccc4s3)c(=O)c-2c1C (stereo not drawn)	0.0	-3%	.	3.9	22	6%[15.4 µM]
CC(C)NC(=O)c1cc2c(Cl)nc3ccccc3c2s1	0.3	.	-3.6%	.	-15	.
CN(CC(=O)Nc1ccc(F)c(F)c1F)C(=O)CC1CCCCC1	0.9	0%	-0.7%	.	0	-2%
O=C(Nc1cc(S(=O)(=O)N2CCOCC2)ccc1N1CCCCC1)c1cc(-c2ccccn2)nc2ccccc12	0.7	-16%	-0.9%	-4.3	-13	6%[15.4 µM]
C/C(=N\NC(=O)c1nnn(-c2nonc2N)c1-c1ccccc1)c1ccccc1O	1.4	1%	8.3%	-1.0	-16	24%
COc1ccc(C(=O)N/N=C/C2CC=CCC2)cc1OC (stereo not drawn)	0.3	7%	.	1.6	-17	0%[15.4 µM]
CC(=O)c1ccsc1-c1c(C)cc2oc(=O)cc(-c3ccccc3)c2c1C	-0.7	?	-10%	?	1	.
Cc1cc(C)c(C(=O)CN2C(=O)NC3(CCC(C)CC3)C2=O)cc1C (stereo not drawn)	0.5	9%	.	-2.6	15	-4%[15.4 µM]
COc1ccc(S(=O)(=O)Nc2c(C)ccc3nsnc23)cc1OC	0.4	-1%	18%	2.7	12	-36%[inhibitor]
O=c1c2cc(Cl)cc(Cl)c2nc2n1CCC2	0.3	9%	.	1.6	26	-2%[15.4 µM]
COc1cccc(Cn2c(=O)oc3ccccc32)c1	2.9	6%	.	-2.2	-7	2%
COc1cc(NC(=O)CSc2ncc3c(n2)-c2ccc(Cl)cc2N(Cc2ccccc2)S3(=O)=O)cc(OC)c1	-0.3	.	-15%	.	-10	.
C/C(=N\NC(=O)c1c(Cl)c(C)nn1C)c1cccc(NC(=O)c2cccc(F)c2)c1	0.5	-21%	-2.4%	-1.7	-8	-1%[15.4 µM]
CCCCCc1ccc(-c2ccc(OC)cc2)nc1	1.2	-1%	.	5.1	-24	?
Cc1ccc(CNC(=O)Cn2cnc3c(OCc4ccccc4)ncnc32)o1	-1.0	9%	-0.9%	.	-10	.
Cc1cc(=O)oc2cc(OC(C)C(=O)NCC3CCC(C(=O)O)CC3)ccc12 (stereo not drawn)	.	8%	4.5%	-2.7	.	.
Following part.
SMILES	TRPML1 ag	gsp antag	ClpP mod	Menin-MLL FL inh	TRPML1 blocker	gsp ag
CC(=O)N/C(=C\c1ccccc1)C(=O)OCC(=O)c1ccccc1	1.0	7%	?	.	4	-2%
COC(=O)CCC(=O)Nc1nc(-c2ccccc2)cs1	-0.1	-7%	-3.0%	.	-3	-27%
COc1cccc(/C=C/C(=O)c2ccc[nH]2)c1	0.4	8%	1.1%	4.6	11	-2%[15.4 µM]
COc1ccc(S(=O)(=O)NCCc2csc(-c3ccc(F)cc3)n2)cc1F	1.6	.	-11%	.	14	.
CC(C)(C)N/N=C/c1c(O)n(-c2ccc(Cl)cn2)c(=O)c2ccccc12	0.3	-4%	-3.1%	3.5	-7	-5%
CN(C)C(=O)NC1c2ccccc2-c2ccccc21	.	12%	0.8%	27	.	?
COc1ccc(OCC(=O)Nc2ccc3c(c2)nc(CCNC(C)=O)n3C)cc1	0.6	-5%	.	-2.1	13	5%[15.4 µM]
CCCc1ncc(C(O)c2cccc3ccccc23)n1C (stereo not drawn)	-0.7	3%	-2.1%	0.5	20	-5%
Cc1nc(NCc2ccco2)nc2c1C(=O)CC(C)C2 (stereo not drawn)	-0.1	6%	-4.2%	2.8	21	5%
Cc1cccc(NC(=O)COc2cccc3c2CCN(C)C3=O)c1	-1.0	?	1.2%	-0.5	4	-7%[15.4 µM]
Cc1c(C(=O)N2CCCCC2)sc(NC(=O)C(C)C)c1C#N	-0.4	-2%	0.4%	0.0	-13	8%
COc1ccc(N(C)C(=O)c2cc3c(s2)-c2ccccc2OC3)c(OC)c1	3.8	-14%	-8.6%	-1.3	-15	-40%[inhibitor]
Cc1ccccc1CN1C(=O)Nc2ccccc2C(=O)N1C(C)(C)C	2.9	4%	-2.4%	0.1	6	26%
COC(=O)C1CCN(C(c2cccs2)c2sc3nc(C)nn3c2O)CC1 (stereo not drawn)	0.2	-2%	0.7%	2.5	-9	?
Cc1ccc(NC(=O)CN2C(=O)CN(C)C2=O)cc1S(=O)(=O)N1CCCCC1	-0.6	6%	.	1.3	-20	7%[15.4 µM]
Cc1ccc(NC(=O)Cn2nc(-c3ccc(Cl)cc3)c3ccccc3c2=O)cc1	1.4	.	0.0%	.	-7	.
CN(Cc1ccccc1)C(=O)CCSc1nc(-c2ccc3c(c2)OCO3)cc(C(F)(F)F)n1	1.6	-16%	18µM*	6.3	28	-52%[inhibitor]
Cc1cccc(NC(=O)c2cccc(NC(=O)Cc3cccs3)c2)c1	1.1	-12%	.	-7.3	-22	19%
Cc1ccc(NC(=O)C2CCN(S(=O)(=O)c3ccc4c(c3)CCCC(=O)N4)CC2)c(Br)c1	-1.3&1.5	-10%	1.7%&0.6%	.	-5&-3	19%
COc1cc(CCC(=O)NCc2ccc(Cl)cc2)cc(OC)c1OC	-0.3	3%	0.5%	-6.9	-3	-25%
CN1CCc2c(sc3nc(SCC(N)=O)n(-c4ccccc4)c(=O)c23)C1	2.1	10%	28µM*	?	-17	-45%[inhibitor]
Cc1ccc(NC(=O)c2ccc(=O)[nH]n2)cc1S(=O)(=O)Nc1ccccc1Cl	-1.2	11%	6.0%	.	-3	15%
O=C(c1ccco1)N1CCN(Cc2cn[nH]c2-c2ccc(F)cc2F)CC1	-1.1	3%	1.5%	-2.7	-2	-37%[inhibitor]

Among those listed so far, 2 contain a tert-butyl group.
SMILES	TRPML1 ag	gsp antag	ClpP mod	Menin-MLL FL inh	TRPML1 blocker	gsp ag
CC(C)(C)N/N=C/c1c(O)n(-c2ccc(Cl)cn2)c(=O)c2ccccc12	0.3	-4%	-3.1%	3.5	-7	-5%
Cc1ccccc1CN1C(=O)Nc2ccccc2C(=O)N1C(C)(C)C	2.9	4%	-2.4%	0.1	6	26%
